Source: PubChem BioAssay (Broad Institute)
ID4 SMM: binds human ID4 protein on microarray. P47928. small molecule microarray, Flag-ID4 binding, fluorescence F/B. calls only. hit rate 1.2% among 31,000. AID 624137;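 active = spot signal over background at p below 0.07 in all four prints; compounds were printed on slides so no solution concentration is given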;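 note: a binder raises fluorescence above local background on the spot; about 2 pmol printed per array spot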
Target sequence (P47928 whole entry, looked up): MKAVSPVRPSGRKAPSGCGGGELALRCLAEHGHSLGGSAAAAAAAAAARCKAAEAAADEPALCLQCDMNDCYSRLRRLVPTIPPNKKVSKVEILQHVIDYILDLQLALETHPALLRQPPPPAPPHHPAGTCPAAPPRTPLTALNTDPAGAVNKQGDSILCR
Calls only; i = inactive; + = active, no number.

SMILES | ID4 SMM
Cc1cc(C)c(S(=O)(=O)NCC(=O)Nc2ccc(I)cc2)c(C)c1 | i
CCC(=O)N(C)C[C@H]1Oc2ncc(-c3ccccc3F)cc2C(=O)N([C@@H](C)CO)C[C@H]1C | i
COc1ccc(N(Cc2cc3cc(C)ccc3[nH]c2=O)C(=O)c2ccccc2)cc1 | i
COC(=O)c1ccccc1NC(=O)CSc1nnc(-c2ccco2)n1-c1ccccc1 | i
Cn1c(SCc2nc(-c3ccc(Cl)cc3)no2)nnc1-c1cccs1 | i
Cc1ccc(NC(=O)c2ccc(NCc3cccnc3)c([N+](=O)[O-])c2)cc1Cl | i
COC(=O)c1cccc(NC(=O)COc2ccc(I)cc2)c1 | i
COC(=O)c1ccc(CSc2nnc3n(N)cnn23)cc1 | i
Cc1ccc(C)c(C(Nc2ccccn2)c2cc(Cl)c3cccnc3c2O)c1 (stereo not drawn) | i
CCNC(=O)C[C@H]1C=C[C@H](NC(=O)C2CCC2)[C@@H](CO)O1 | i
Cc1ccccc1C(C#N)C(CC#N)c1ccccc1 (stereo not drawn) | i
CS(=O)(=O)N(CC(=O)Nc1cc(Cl)ccc1Oc1ccccc1)c1ccc(F)c(Cl)c1 | i
O=C(CSc1nnc(-c2ccc(Cl)cc2)n1-c1ccccc1)Nc1ccccc1C(F)(F)F | i
C[C@@H]1CN([C@H](C)CO)C(=O)c2cc(-c3ccccc3F)cnc2O[C@H]1CN(C)C(=O)C1CCCCC1 | i
CCCN(C)C[C@@H]1Oc2ncc(-c3ccccc3)cc2C(=O)N([C@@H](C)CO)C[C@@H]1C | i
CC(C)C(=O)NC(c1cccc([N+](=O)[O-])c1)c1c(O)ccc2ccccc12 (stereo not drawn) | i
CCC(Sc1nnc2c(n1)[nH]c1ccccc12)C(=O)N1c2ccccc2Sc2ccccc21 (stereo not drawn) | i
COCC(=O)N(C)C[C@H]1Oc2cc(-c3cccc(F)c3)ccc2S(=O)(=O)N([C@H](C)CO)C[C@H]1C | i
O=C(CN(C1CCCCC1)S(=O)(=O)c1ccc(Br)cc1)Nc1c(F)cccc1F | i
CCOC(=O)N(C)C[C@H]1OCc2ccccc2-c2ccccc2C(=O)N([C@@H](C)CO)C[C@@H]1C | i
COc1ccc(OC)c(-n2c(=S)[nH]c3cc(C(=O)Nc4ccc(C)c(Cl)c4)ccc3c2=O)c1 | i
COc1ccc2cc(CCC(C)=O)ccc2c1 | i
C[C@H](NC(=O)C[C@H]1C[C@H]2c3cc(N(C)C)ccc3O[C@H]2[C@H](CO)O1)c1ccccc1 | i
COc1cccc(-c2cc(=O)c3ccccc3o2)c1N | i
CC(C)C#Cc1cnc2c(c1)C(=O)N([C@@H](C)CO)C[C@H](C)[C@H](CN(C)Cc1ccccn1)O2 | i
O=C(C[C@H]1C=C[C@H](NC(=O)c2ccccn2)[C@@H](CO)O1)NCc1cc(F)cc(F)c1 | i
CC(Oc1ccccc1F)C(=O)Nc1ccccc1[N+](=O)[O-] (stereo not drawn) | i
O=C(C[C@H]1CC[C@@H](NC(=O)c2ccncc2)[C@H](CO)O1)NCC1CC1 | i
C[C@@H](NC(=O)C[C@@H]1CC[C@@H](NC(=O)C2CC2)[C@H](CO)O1)c1ccccc1 | i
CCn1c(SCC(=O)Nc2cccc(Cl)c2C)nnc1-c1ccc(Br)cc1 | i
CCC(=O)N[C@@H]1C=C[C@H](CC(=O)NCc2ccccc2OC)O[C@H]1CO | i
COc1ccc(OC)c(S(=O)(=O)N(C)CC(=O)Nc2ccc3c(c2)OCCO3)c1 | i
C[C@H](CO)N1C[C@H](C)[C@@H](CN(C)Cc2ccccc2)Oc2ncc(-c3ccccc3)cc2C1=O | i
O=C(CSc1nnc2scc(-c3ccccc3)n12)Nc1nsc(-c2ccc(Cl)cc2)n1 | i
CCOC(=O)c1c(C)oc2ccc(OCc3cc(C(=O)OC)oc3C)cc12 | i
C[C@@H]1CN([C@@H](C)CO)C(=O)c2cc(C#CCC3CCCC3)cnc2O[C@@H]1CN(C)S(=O)(=O)c1cccs1 | i
Cn1nnnc1SCC(=O)Nc1cccc(Cl)c1Cl | i
C[C@H](CO)N1C[C@H](C)[C@@H](CN(C)C)Oc2ncc(-c3cccc(C#N)c3)cc2C1=O | i
CC(C)C#Cc1cnc2c(c1)C(=O)N([C@@H](C)CO)C[C@@H](C)[C@H](CN(C)Cc1cccc(F)c1)O2 | i
O=C(O)c1cccc(NS(=O)(=O)c2cccc(S(=O)(=O)c3ccc(Cl)c(Cl)c3)c2)c1 | i
CCS(=O)(=O)N[C@H]1C=C[C@@H](CC(=O)NCc2ccc(Cl)cc2)O[C@@H]1CO | i
Cn1cnc(S(=O)(=O)N[C@H]2C=C[C@H](CC(=O)NCC3CCCCC3)O[C@@H]2CO)c1 | i
C/C=C/c1ccc2c(c1)O[C@H](CN(C)Cc1ccc(F)cc1)[C@@H](C)CN([C@H](C)CO)S2(=O)=O | i
COc1cc([N+](=O)[O-])ccc1NC(=S)NC(=O)COc1ccc(C)cc1 | i
COc1ccc(OC)c(NC(=O)Cn2cnc3sc(C)c(-c4ccc(Cl)cc4)c3c2=O)c1 | i

Seven consecutive records from above:
SMILES | ID4 SMM
Cc1cc(C)c(S(=O)(=O)NCC(=O)Nc2ccc(I)cc2)c(C)c1 | i
CCC(=O)N(C)C[C@H]1Oc2ncc(-c3ccccc3F)cc2C(=O)N([C@@H](C)CO)C[C@H]1C | i
COc1ccc(N(Cc2cc3cc(C)ccc3[nH]c2=O)C(=O)c2ccccc2)cc1 | i
COC(=O)c1ccccc1NC(=O)CSc1nnc(-c2ccco2)n1-c1ccccc1 | i
Cn1c(SCc2nc(-c3ccc(Cl)cc3)no2)nnc1-c1cccs1 | i
Cc1ccc(NC(=O)c2ccc(NCc3cccnc3)c([N+](=O)[O-])c2)cc1Cl | i
COC(=O)c1cccc(NC(=O)COc2ccc(I)cc2)c1 | i

Later entries
SMILES | ID4 SMM
COc1ccc(-n2c(SCC(=O)Nc3cccc(C)c3C)nnc2-c2ccccc2)cc1 | i
CCCC#Cc1cnc2c(c1)C(=O)N([C@@H](C)CO)C[C@H](C)[C@H](CN(C)Cc1ccncc1)O2 | i
CC(=O)Nc1ccc(OCC(O)Cn2ccnc2)cc1 (stereo not drawn) | i
Cn1c(=O)c2c(ncn2CC(=O)Nc2ccc(Br)cc2F)n(C)c1=O | i
O=C(CNC(=O)c1ccco1)Nc1cccc(C(F)(F)F)c1 | i
N#C[C@H]1[C@@H](c2ccc(C#CC3CCCCC3)cc2)[C@@H](CO)N1S(=O)(=O)c1ccccc1 | i
O=C(CN1C(=O)c2cccc3cccc1c23)Nc1cccc([N+](=O)[O-])c1 | i
Cc1cc(I)cc(C)c1NC(=O)CSc1nnnn1-c1ccccc1 | i
COc1cccc(OCC(=O)Nc2ccc(-c3nc4ccccc4[nH]3)cc2)c1 | +
CS(=O)(=O)N(CC(=O)NC1CCCC1)c1ccc(F)c(Cl)c1 | i
COc1cccc(C#Cc2ccc3c(c2)O[C@H](CN(C)C(C)=O)[C@H](C)CN([C@@H](C)CO)S3(=O)=O)c1 | i
CS(=O)(=O)N(CC(=O)NC1CCCC1)c1cccc(F)c1 | i
CC(=O)N[C@@H]1CC[C@@H](CC(=O)NCc2ccc(Cl)cc2)O[C@H]1CO | i
CCN(CC(=O)Nc1cccc([N+](=O)[O-])c1)S(=O)(=O)c1ccc(Cl)cc1 | i
C[C@H](CO)N1C[C@H](C)[C@H](CN(C)Cc2cccnc2)Oc2ncc(C#CC3CCCCC3)cc2C1=O | i
Cc1ccc(S(=O)(=O)/C=C/C#N)cc1 | i
Cc1ccc(NS(=O)(=O)c2cc(C(=O)NCC3CCCO3)ccc2Cl)c(C)c1 (stereo not drawn) | i
C[C@H](CO)N1C[C@H](C)[C@H](CN(C)Cc2ccc(Cl)c(Cl)c2)Oc2ccc(N(C)C)cc2C1=O | i
C[C@@H]1CN([C@@H](C)CO)C(=O)c2cccc(NC(=O)C3CCCCC3)c2O[C@@H]1CN(C)C | i
CNC[C@@H]1Oc2ncc(C#CCC3CCCC3)cc2C(=O)N([C@H](C)CO)C[C@H]1C | i
C/C=C/c1cnc2c(c1)C(=O)N([C@@H](C)CO)C[C@H](C)[C@@H](CN(C)C(=O)c1ccc3c(c1)OCO3)O2 | i
COc1ccc(NC(=O)CCN2C(=O)c3ccccc3S2(=O)=O)cc1 | i
CC(NS(=O)(=O)c1ccc(Cl)cc1)C(=O)Nc1cccc([N+](=O)[O-])c1 (stereo not drawn) | i
COC(=O)CN(c1ccc(C)c(C)c1)S(=O)(=O)c1ccccc1 | i
CN(Cc1nc(-c2cccc([N+](=O)[O-])c2)no1)S(=O)(=O)c1ccccc1 | i
O=C(Cc1ccccc1)N[C@H]1C=C[C@@H](CC(=O)N2CCCCC2)O[C@@H]1CO | i
Cc1ccc2nc(Nc3nc(CSc4nnc(C)s4)cc(=O)[nH]3)nc(C)c2c1 | i
COc1ccc(NC(=O)C(C)N(c2ccc(C)cc2)S(C)(=O)=O)cc1 (stereo not drawn) | i
COc1cc(C(=O)NC2(C(F)(F)F)C(=O)N(Cc3ccco3)C3=C2C(=O)CC(C)(C)C3)cc(OC)c1OC (stereo not drawn) | i
CCCC#Cc1cnc2c(c1)C(=O)N([C@H](C)CO)C[C@@H](C)[C@H](CN(C)C(=O)c1ccccc1)O2 | i
CC(C)C#Cc1cnc2c(c1)C(=O)N([C@@H](C)CO)C[C@H](C)[C@@H](CN(C)C(=O)CCN1CCCCC1)O2 | i
CCc1ccc(NC(=O)CN(C)S(=O)(=O)c2ccc3ccccc3c2)cc1 | i
CN(C)C(=O)C[C@H]1CC[C@@H](NC(=O)c2ccc(F)cc2)[C@H](CO)O1 | i
C[C@H]1CN([C@@H](C)CO)C(=O)c2cc(Br)cnc2O[C@H]1CN(C)Cc1cccc(F)c1 | i
O=C(C[C@H]1C[C@@H]2c3cc(NC(=O)C4CCOCC4)ccc3O[C@@H]2[C@@H](CO)O1)NC1CCCCC1 | i
CCCN(C)C[C@H]1OCc2ccccc2-c2ccccc2C(=O)N([C@@H](C)CO)C[C@H]1C | i
Cc1ccc(-c2nc3ncccc3o2)cc1NC(=O)C(C)Oc1ccc(Cl)cc1Cl (stereo not drawn) | i
O=C(CSc1nnc(-c2ccco2)o1)c1ccc(Oc2ccccc2)cc1 | i
CCCC#Cc1ccc2c(c1)O[C@H](CN(C)S(=O)(=O)c1cccc(OC)c1)[C@@H](C)CN([C@@H](C)CO)S2(=O)=O | i
C[C@H]1CN([C@@H](C)CO)C(=O)c2c(c3ccccc3n2C)-c2ccccc2CO[C@H]1CN(C)S(=O)(=O)Cc1ccccc1 | i
O=C(C[C@H]1C=C[C@@H](NC(=O)C2CCC2)[C@H](CO)O1)NCC1CC1 | i
COc1ccc(NC(=O)CSc2nc(-c3ccccc3)cc(C(F)(F)F)n2)c([N+](=O)[O-])c1 | i
Cc1ccc(C(C)C)cc1OCC(O)Cn1cnc2ccccc21 (stereo not drawn) | i
COc1cc(CO)ccc1OCC(=O)Nc1ccc(C)cc1 | i
C[C@@H]1CN([C@H](C)CO)C(=O)c2cc(-c3cccc(F)c3)cnc2O[C@@H]1CN(C)Cc1cccnc1 | i
Cc1sc2ncnc(SCC(=O)NCc3ccccc3)c2c1C | i
C[C@H](O)C#Cc1ccc2c(c1)O[C@@H](CN(C)CC1CCOCC1)[C@@H](C)CN([C@H](C)CO)S2(=O)=O | i
CCc1ccccc1OCC(=O)Nc1cc(OC)ccc1OC | i
CC1=NS(=O)(=O)c2cc(Cl)ccc2N1 | i
COc1ccc(C)cc1S(=O)(=O)NCCO | i
C[C@@H]1CN([C@@H](C)CO)C(=O)c2cc(C#Cc3ccncc3)cnc2O[C@H]1CN(C)CC1CCOCC1 | i
Cc1oc2c(c1C(N)=O)CCCC2 | i
O=C(CCN1C(=O)c2ccc([N+](=O)[O-])cc2C1=O)Nc1cccc(I)c1 | i
COc1cccc2cc(C(=O)C3C(=O)C(=O)N(Cc4ccco4)C3c3cccnc3)oc12 (stereo not drawn) | i
C[C@@H]1CN([C@H](C)CO)C(=O)c2cc(NC(=O)Cc3ccccc3)ccc2O[C@@H]1CN(C)C | i
O=C(N[C@@H]1CC[C@@H](CC(=O)N2CCOCC2)O[C@@H]1CO)c1ccccn1 | i
CC(C)(C)C(=O)N1CCN(c2ccc([N+](=O)[O-])c(NCc3cccnc3)c2)CC1 | i
COc1cccc(S(=O)(=O)N[C@H]2C=C[C@@H](CC(=O)NC3Cc4ccccc4C3)O[C@H]2CO)c1 | i
COC(=O)c1ccc2c(=O)n(-c3ccccc3)c(SCC(=O)Nc3ccccc3)nc2c1 | i
C[C@@H]1CN([C@@H](C)CO)C(=O)CCCn2cc(nn2)CO[C@H]1CN(C)CC1CCCC1 | i

New compounds follow
SMILES | ID4 SMM
O=C1c2cccc3cccc(c23)C(=O)N1CCCSc1n[nH]c(-c2ccc(F)cc2)n1 | i
CN(C)C(=O)C[C@@H]1C[C@@H]2c3cc(NC(=O)C4CCC4)ccc3O[C@@H]2[C@H](CO)O1 | i
Cc1c(Cl)cccc1NC(=O)CN(c1ccc(F)c(Cl)c1)S(C)(=O)=O | i
O=S(=O)(c1ccccc1)N1CCN(CC(O)COc2ccc3c(c2)CCC3)CC1 (stereo not drawn) | i
COc1ccc(-c2cnc3c(c2)C(=O)N([C@@H](C)CO)C[C@H](C)[C@@H](CN(C)C)O3)cc1 | i
Cc1ccccc1CN(CC(N)=O)S(=O)(=O)c1ccc(Cl)cc1 | i
CCOc1cc(C)c(Cl)cc1S(=O)(=O)n1cnc2ccccc21 | i

An excerpt, so the mix of outcomes need not match the whole.
